# High-throughput results from PubChem BioAssay.
# Myc binder: binders of human c-Myc | P01106 | small molecule microarray, His-c-Myc binding, anti-His fluorescence | calls only | hit rate 1.5% among 17,000;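 active means spot fluorescence over background with P-value below 7% in all four replicate spots, showing protein binding; compounds were printed on slides so no solution concentration is given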;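 further: score is binary with 100 for all four spots passing and 0 otherwise; about 2 pmol printed per array spot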
# mut p53 SMM: binds human mutant p53 on microarray | small molecule microarray binding, anti-GST fluorescence | hit rate 0.4% among 17,000 | calls only;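 active means compounds whose four printed spots each glow above background more than chance allows, each with a p-value under 7%; compounds were printed on slides so no solution concentration is given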;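 further: about 2 pmol printed per array spot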
# STAT3 SMM: STAT3 (human) binding. AID 624138. hit rate 0.2% among 17,000. Small molecule microarray, His-STAT3 binding, anti-His fluorescence. P40763. calls only;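 active means compounds whose four printed spots each show fluorescence over background unusually high for their array block, chance value under 7%; compounds were printed on slides so no solution concentration is given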;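 further: about 2 pmol printed per array spot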
# Target sequence (P40763 whole entry, looked up): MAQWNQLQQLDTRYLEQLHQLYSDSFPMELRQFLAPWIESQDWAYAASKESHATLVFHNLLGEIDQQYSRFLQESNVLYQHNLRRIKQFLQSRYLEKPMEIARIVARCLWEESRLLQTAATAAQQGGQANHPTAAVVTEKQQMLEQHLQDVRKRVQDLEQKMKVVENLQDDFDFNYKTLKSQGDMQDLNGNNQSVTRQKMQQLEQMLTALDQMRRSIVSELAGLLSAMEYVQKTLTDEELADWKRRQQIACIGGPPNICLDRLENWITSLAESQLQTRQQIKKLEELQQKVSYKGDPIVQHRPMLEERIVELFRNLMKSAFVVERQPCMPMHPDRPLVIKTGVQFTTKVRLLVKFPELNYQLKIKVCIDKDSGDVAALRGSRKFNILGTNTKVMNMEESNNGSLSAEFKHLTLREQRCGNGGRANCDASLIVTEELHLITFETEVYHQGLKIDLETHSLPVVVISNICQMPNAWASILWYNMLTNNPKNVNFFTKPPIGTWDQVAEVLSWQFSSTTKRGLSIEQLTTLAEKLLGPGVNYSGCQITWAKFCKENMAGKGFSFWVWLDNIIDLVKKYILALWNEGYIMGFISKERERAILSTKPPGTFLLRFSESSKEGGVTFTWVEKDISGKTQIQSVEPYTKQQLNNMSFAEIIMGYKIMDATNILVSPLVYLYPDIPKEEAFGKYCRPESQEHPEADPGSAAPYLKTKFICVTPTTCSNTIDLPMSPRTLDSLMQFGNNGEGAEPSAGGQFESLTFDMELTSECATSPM
# ID4 binder: ID4 (human) binding; calls only; P47928; hit rate 1.2% among 31,000; AID 624137; small molecule microarray, Flag-ID4 binding, fluorescence F/B;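 active means spot signal over background at p below 0.07 in all four prints; compounds were printed on slides so no solution concentration is given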;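 further: a binder raises fluorescence above local background on the spot; about 2 pmol printed per array spot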
# Target sequence (P47928 whole entry, looked up): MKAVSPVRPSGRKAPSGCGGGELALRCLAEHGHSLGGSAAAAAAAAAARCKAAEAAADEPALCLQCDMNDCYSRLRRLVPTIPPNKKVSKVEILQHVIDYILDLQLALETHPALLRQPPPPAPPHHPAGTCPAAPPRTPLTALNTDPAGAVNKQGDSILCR
# Calls only; i = inactive; x = no result given; + = active, no number.
# Below each SMILES – mut p53 SMM	STAT3 SMM	Myc binder	ID4 binder
- OCC(Cc1ccc2c(c1)OCO2)C(CO)Cc1ccc2c(c1)OCO2 (configuration not stated)
→ i	i	i	i
- C[C@@H]1CN([C@H](C)CO)C(=O)c2cc(NS(C)(=O)=O)ccc2O[C@@H](C)CCCCO[C@H]1CN(C)S(=O)(=O)c1cccs1
→ i	i	i	i
- C[C@@H]1CCCCO[C@H](CN(C)S(=O)(=O)c2cccs2)[C@@H](C)CN([C@@H](C)CO)C(=O)c2cc(NS(C)(=O)=O)ccc2O1
→ i	i	i	i
- COc1ccc(CN(C)C[C@H]2Oc3c(NC(=O)Nc4ccc5c(c4)OCO5)cccc3C(=O)N([C@H](C)CO)C[C@@H]2C)cc1
→ i	i	i	i
- O=C(NCc1ccccc1)C1=C[C@@H](C2CC2)C[C@@H](OCc2ccc(CO)cc2)O1
→ i	i	i	i
- C[C@@H]1CN([C@H](C)CO)C(=O)Cc2cc(NC(=O)NC3CCCCC3)ccc2O[C@@H]1CN(C)Cc1ccc2c(c1)OCO2
→ i	i	i	i
- COc1ccc(CN(C)C[C@@H]2Oc3ccc(NC(=O)Cc4cn(C)c5ccccc45)cc3CC(=O)N([C@H](C)CO)C[C@H]2C)cc1
→ i	i	i	i
- Cc1noc(C)c1S(=O)(=O)N(C)C[C@@H]1Oc2ccc(NC(=O)Nc3ccc(F)cc3)cc2CC(=O)N([C@@H](C)CO)C[C@@H]1C
→ i	i	i	i
- CCOC(=O)c1cc(C)n(CCCN2CCOCC2)c1C
→ i	i	i	i
- CC(C)NC(=O)Nc1ccc2c(c1)C(=O)N([C@H](C)CO)C[C@H](C)[C@@H](CN(C)S(=O)(=O)c1cn(C)cn1)OCCCC[C@H](C)O2
→ i	i	i	i
- C[C@H](CO)N1C[C@H](C)[C@@H](CN(C)Cc2ccc(C(=O)O)cc2)Oc2ccc(NC(=O)Nc3ccccc3)cc2CC1=O
→ i	i	i	i
- C[C@H]1CN([C@@H](C)CO)C(=O)CCCn2nncc2CO[C@H]1CN(C)C(=O)C1CC1
→ i	i	i	i
- O=C1O[C@H](c2ccccc2)[C@H](c2ccccc2)N2[C@H]1[C@@H](C(=O)N1CCCCCCC1)[C@]1(C(=O)Nc3ccc(C#CC4(O)CCCCCC4)cc31)[C@H]2c1ccc(OCCO)cc1
→ +	i	+	x
- Cc1cc(C(F)(F)F)c(C#N)c(SCC(=O)Nc2ccc(Cl)cc2)n1
→ i	i	i	i
- COc1ccc(S(=O)(=O)N2CCN(c3ccccn3)CC2)cc1N(C)S(=O)(=O)c1ccccc1
→ i	i	i	i
- COC(=O)c1c(NC(=S)Nc2cccc(S(=O)(=O)N3CCOCC3)c2)sc2c1CCC2
→ i	i	i	i
- Cc1ccc(-n2c(SCC(=O)c3ccc(Cl)cc3)nnc2-c2ccco2)cc1
→ i	i	i	i
- C[C@H]1CN([C@@H](C)CO)C(=O)Cc2cc(N(C)C)ccc2O[C@H]1CN(C)C
→ i	i	i	i
- COc1ccc(NC(=O)Nc2ccc3c(c2)C(=O)N([C@H](C)CO)C[C@H](C)[C@@H](CN(C)C)O3)cc1
→ i	i	i	i
- C=C1C(=O)O[C@@H]2[C@H]3C(CO[C@@H]4O[C@H](CO)[C@@H](O)[C@H](O)[C@H]4O)=CC(=O)C3=C(C)CC[C@@H]12
→ i	i	i	x
- C=CC(C)(O)CCC1(C)C2=C(C(OC(C)=O)C(OC(C)=O)C1C)C(C)(C)CCC2 (configuration not stated)
→ i	i	i	i
- Cc1noc(C)c1S(=O)(=O)Nc1ccc2c(c1)C(=O)N([C@@H](C)CO)C[C@@H](C)[C@@H](CN(C)C)O2
→ i	i	i	i
- C[C@@H]1CN([C@@H](C)CO)C(=O)CCCn2cc(nn2)CO[C@H]1CN(C)C(=O)c1ccc(N2CCN(C)CC2)cc1
→ i	i	i	+
- COc1ccc(CN(C)C[C@@H]2Oc3ccc(NC(=O)Nc4ccc5c(c4)OCO5)cc3CC(=O)N([C@@H](C)CO)C[C@H]2C)cc1
→ i	i	i	+
- O=C(Cn1nnc2ccccc21)c1ccc(Oc2ccc([N+](=O)[O-])cc2)cc1
→ i	i	i	i
- Nc1nc(Cl)nc2c1ncn2C1OC(CO)C(O)C1F (configuration not stated)
→ i	i	i	i
- CC(=O)Cc1cc(O)cc2oc(C)cc(=O)c12
→ i	i	i	x
- OCC1=CC[C@@H]2C=CO[C@@H](O[C@@H]3O[C@H](CO)[C@@H](O)[C@H](O)[C@H]3O)[C@H]12
→ i	i	i	x
- O=[N+]([O-])c1cc(C(F)(F)F)ccc1N(CCO)CCO
→ i	i	i	i
- CCc1cc2c(SCc3nc4ccccc4[nH]3)ncnc2s1
→ i	i	i	i

# Single records (already shown):
# Profile of COc1ccc(S(=O)(=O)N2CCN(c3ccccn3)CC2)cc1N(C)S(=O)(=O)c1ccccc1 : mut p53 SMM: i; STAT3 SMM: i; Myc binder: i; ID4 binder: i
# Profile of CC(=O)Cc1cc(O)cc2oc(C)cc(=O)c12 : mut p53 SMM: i; STAT3 SMM: i; Myc binder: i; ID4 binder: x

# (listing goes on)
# Below each SMILES – mut p53 SMM	STAT3 SMM	Myc binder	ID4 binder
- C[C@@H]1CCCCO[C@H](CN(C)Cc2ccccc2)[C@@H](C)CN([C@H](C)CO)C(=O)c2cc(NS(=O)(=O)c3ccc(Cl)cc3)ccc2O1
→ i	i	i	x
- CNC[C@@H]1OCCCC[C@H](C)Oc2ccc(N(C)C)cc2C(=O)N([C@@H](C)CO)C[C@H]1C
→ i	i	i	i
- O=C(c1ccc(Nc2nccc(-c3cc4ccccc4s3)n2)cc1)N1CCC(N2CCCC2)CC1
→ i	i	i	i
- COc1ccc(NC(=O)CSc2nnc(-c3ccco3)n2-c2ccccc2)cc1
→ i	i	i	i
- C[C@H](CO)N1C[C@H](C)[C@@H](CN(C)C(=O)Nc2ccc(-c3cccs3)cc2)OCc2cn(nn2)CCCC1=O
→ i	i	i	i
- Cc1noc(C)c1NC(=O)Nc1ccc2c(c1)CC(=O)N([C@@H](C)CO)C[C@H](C)[C@@H](CN(C)C)O2
→ i	i	i	i
- CC(C)NC(=O)N(C)C[C@H]1Oc2ccc(NC(=O)CCN3CCOCC3)cc2CC(=O)N([C@@H](C)CO)C[C@H]1C
→ i	i	i	i
- CNC[C@@H]1Oc2ccc(NC(=O)Nc3ccc(OC)cc3)cc2C(=O)N([C@@H](C)CO)C[C@@H]1C
→ i	i	i	i
- CCOC(=O)c1cnc2c(C)c(C)ccc2c1NCCN(C)C
→ +	i	i	i
- COC(=O)N(C)C[C@@H]1OCc2cnnn2CCCC(=O)N([C@@H](C)CO)C[C@H]1C
→ i	i	i	i
- Cc1noc(C)c1NC(=O)Nc1cccc2c1O[C@@H](CN(C)S(=O)(=O)c1cn(C)cn1)[C@H](C)CN([C@H](C)CO)C2=O
→ i	i	i	i
- C[C@H](CO)N1C[C@H](C)[C@@H](CN(C)Cc2ccc(Cl)c(Cl)c2)Oc2c(NC(=O)C3CCCCC3)cccc2C1=O
→ i	i	i	x
- C[C@@H]1CN([C@H](C)CO)C(=O)Cc2cc(N(C)C)ccc2O[C@H]1CN(C)Cc1ccccc1
→ i	i	i	i
- C[C@@H]1CN([C@@H](C)CO)C(=O)c2cc(NC(=O)Cn3cnnn3)ccc2O[C@H]1CN(C)Cc1ccccc1
→ i	i	i	x
- O=S(=O)(Nc1ncccn1)c1ccc(NC(=S)Nc2ccc(Oc3ccccc3)cc2)cc1
→ i	i	i	i
- O=S(=O)(c1ccc2ccccc2c1)N1CCN(Cc2cccc(OCCO)c2)CC1
→ i	i	i	x
- COc1ccccc1S(=O)(=O)N(C)C[C@@H]1OCc2cn(nn2)CCCC(=O)N([C@H](C)CO)C[C@@H]1C
→ i	i	i	i
- C[C@H]1CN([C@@H](C)CO)C(=O)c2cc(NC(=O)C3CC3)ccc2O[C@@H]1CN(C)C(=O)Nc1ccc(F)cc1
→ i	i	i	i
- COc1cc([C@H]2c3cc(O)c(OC)cc3C[C@@](O)(CO)[C@@H]2CO)ccc1O
→ i	i	i	i
- O=C1c2ccccc2C(Cc2ccnc(F)c2)(Cc2ccnc(F)c2)c2ccccc21
→ i	i	i	i
- COc1ccc(C(=O)Nc2ccccc2)cc1S(=O)(=O)Nc1cc(C)on1
→ i	i	i	i
- Cc1sc(NC(=O)COc2ccc3c(C)cc(=O)oc3c2)c(C#N)c1C
→ i	i	i	i
- CC(C)NC(=O)[C@@]1(C)c2ccccc2C(=O)N(Cc2ccc(OC(F)(F)F)cc2)[C@H]1c1ccc(CO)cc1
→ i	i	i	i
- O=C(C1=C[C@H](C2CCCCC2)C[C@H](OCCCCO)O1)N1CCN(Cc2ccccc2)CC1
→ i	i	i	x
- C[C@@H]1CN([C@H](C)CO)C(=O)c2cc(NC(=O)Cc3cn(C)c4ccccc34)ccc2O[C@@H]1CN(C)Cc1ccc(Oc2ccccc2)cc1
→ i	i	i	x
- CC(C)NC(=O)Nc1ccc2c(c1)C(=O)N([C@@H](C)CO)C[C@@H](C)[C@@H](CN(C)C(=O)Cc1ccccc1)OCCCC[C@H](C)O2
→ i	i	i	i
- C[C@H](CO)N1C[C@H](C)[C@@H](CN(C)S(=O)(=O)c2cccs2)Oc2c(NC(=O)Nc3ccc(C(F)(F)F)cc3)cccc2C1=O
→ i	i	i	i
- C[C@@H]1CCCCO[C@H](CN(C)Cc2ccccc2)[C@@H](C)CN([C@@H](C)CO)C(=O)c2cc(N(C)C)ccc2O1
→ i	i	i	i
- CCc1c(C)sc(NC(=S)Nc2nc(C)cc(C)n2)c1C(=O)OC
→ i	i	i	i
- Nc1cc(Nc2ccc(S(N)(=O)=O)cc2)ncn1
→ i	i	i	i

# Part of the list above, reduced to STAT3 SMM, mut p53 SMM and ID4 binder.
molecule	STAT3 SMM	mut p53 SMM	ID4 binder
COc1cc([C@H]2c3cc(O)c(OC)cc3C[C@@](O)(CO)[C@@H]2CO)ccc1O	i	i	i
O=C1c2ccccc2C(Cc2ccnc(F)c2)(Cc2ccnc(F)c2)c2ccccc21	i	i	i

# Additional results
# Below each SMILES – mut p53 SMM	STAT3 SMM	Myc binder	ID4 binder
- COc1cc(-c2oc3cc(O)c(OC)c(O)c3c(=O)c2OC)ccc1O
→ i	i	i	x
- C[C@H](CO)N1C[C@H](C)[C@H](CN(C)CC2CCCCC2)Oc2c(NC(=O)Nc3ccc(F)cc3)cccc2C1=O
→ i	i	i	x
- CN1CCN(CC(=O)N2N=C(c3c(-c4ccccc4)c4cc(Cl)ccc4[nH]c3=O)CC2c2ccccc2)CC1 (configuration not stated)
→ i	i	i	i
- COc1ccc(CN(C)C[C@@H]2Oc3ccc(NC(=O)Nc4ccc(OC)cc4)cc3CC(=O)N([C@@H](C)CO)C[C@H]2C)cc1
→ i	i	i	i
- COC(=O)c1c(NC(=S)NCc2ccco2)sc2c1CCC(C)C2 (configuration not stated)
→ i	i	i	i
- CCCn1cc(NC(=O)C2CC(c3ccccc3O)=NO2)cn1 (configuration not stated)
→ i	i	i	i
- CCOC(=O)CSc1nnc2c(n1)[nH]c1ccccc12
→ i	i	i	i
- COc1ccc(S(=O)(=O)N(C)C[C@H]2Oc3c(NS(C)(=O)=O)cccc3C(=O)N([C@H](C)CO)C[C@@H]2C)cc1
→ i	i	i	i
- C[C@@H]1CN([C@@H](C)CO)C(=O)Cc2cc(NS(=O)(=O)c3ccccc3)ccc2O[C@@H]1CN(C)C(=O)Nc1cccc2ccccc12
→ i	i	i	i
- CC1=C([C@H](O)CCc2ccccc2)[C@H](CO)n2c(=O)n(-c3ccccc3)c(=O)n2C1
→ i	i	i	x
- CCN(CC)CCCn1c(-c2ccc(C)cc2)cn2c3ccccc3nc12
→ i	i	i	i
- COc1ccc(S(=O)(=O)Nc2ccc3c(c2)C(=O)N([C@H](C)CO)C[C@@H](C)[C@@H](CN(C)CC2CC2)O3)cc1
→ i	i	i	i
- Cc1cc(C(=O)Nc2cccc3c2O[C@H](CN(C)C(=O)Nc2ccc(F)cc2)[C@@H](C)CN([C@H](C)CO)C3=O)n(C)n1
→ i	i	i	i
- CC(C)NC(=O)Nc1ccc2c(c1)C(=O)N([C@H](C)CO)C[C@@H](C)[C@H](CN(C)Cc1ccccc1)O2
→ i	i	i	x
- COc1ccc(CCC(=O)O)c(O[C@@H]2O[C@H](CO)[C@@H](O)[C@H](O)[C@H]2O)c1
→ i	i	i	i
- Cc1nnc(SCC(=O)Nc2cccc(I)c2)s1
→ i	i	i	i
- Cc1noc(C)c1NC(=O)Nc1cccc2c1O[C@@H](CN(C)Cc1ccc3c(c1)OCO3)[C@H](C)CN([C@H](C)CO)C2=O
→ i	i	i	i
- NC(=O)c1cc(-c2ccccc2)sc1NC(=O)Cn1cnc2scc(-c3ccccc3)c2c1=O
→ i	i	i	i
- COc1cc(C2c3c(cc(OC)c(O)c3OC)CC(CO)C2CO[C@@H]2O[C@H](CO)[C@@H](O)[C@H](O)[C@H]2O)cc(OC)c1O (some centres not stated)
→ i	i	i	i
- COc1ccc(CN(C)C[C@H]2Oc3ccc(NC(=O)Nc4ccc(F)cc4)cc3C(=O)N([C@@H](C)CO)C[C@H]2C)cc1
→ i	i	i	i
- O=C(O)CCC/C=C\C[C@@H]1CO[C@H](C(F)(F)F)O[C@@H]1c1ccccc1O
→ i	i	i	i
- Cc1noc(C)c1S(=O)(=O)N(C)C[C@H]1OCCCC[C@H](C)Oc2ccc(NC(=O)CCCN(C)C)cc2C(=O)N([C@H](C)CO)C[C@@H]1C
→ i	i	i	i

# Not all compounds are listed, so the mix of outcomes need not match the whole.
